From PubChem
DUX4 inh: blocks DUX4-driven transcriptional activation. 0.8% of 37,000 active. 293T-iDUX4 ZSCAN4-Gaussia luciferase reporter, 24 h; hits give low values. activity change, negative = inhibition, % (test concentration not listed);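 active means -10% or lower and over 25 points stronger than a control reporter; inconclusive means -10% or lower with a smaller gap; inactive means above -10%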;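 further: 0% = median of neutral control wells and -100% = median of positive control wells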
DUX4 inh difference: second read-out of DUX4 inh, no call of its own (marks repeat the call); Gaussia minus Italica difference, %; measured here: selective DUX4 reporter inhibition;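 worked out from the two reporters; negative = selective loss of the DUX4 reporter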
DUX4 inh control: second read-out of DUX4 inh, no call of its own (marks repeat the call); activity change, negative = inhibition, %; measured here: Italica tet-on control reporter;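 0 = neutral control and -100 = positive control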
Active calls of the source: *; u = inconclusive; x = not tested or not shown; & = joins results of further samples. A portion of the library. The share of hits here may be higher or lower than overall.

SMILES	DUX4 inh	DUX4 inh difference	DUX4 inh control
O=C(Cc1ccccn1)N1CC(=O)N2[C@@H](CO)[C@H](c3ccc(-c4ccc(F)cc4)cc3)[C@@H]2C1	10	9	1.1
N#C[C@H]1N[C@@H](CO)[C@@H]1c1ccc(-c2ccccc2F)cc1	0	-1	1.0
O=C(NCC1CC1)[C@@H]1[C@@H](CO)[C@@H]2Cn3c(cccc3=O)[C@H]1N2C(=O)c1ccccc1	4	1	2.4
CC1C=NC(S(=O)(=O)N2CC[C@H]3[C@@H](CO)N(C)c4ccc(-c5ccccc5)cc4[C@H]32)=N1 (some centres not stated)	31	14	17
COc1ccc(-c2ccc([C@@H]3[C@H](CN(C)S(C)(=O)=O)N[C@@H]3CO)cc2)cc1	-5	-2	-2.5
O=C(C[C@@H]1C[C@H]2c3cc(NC(=O)Nc4ccc(C(F)(F)F)cc4)ccc3O[C@H]2[C@H](CO)O1)NCc1ccc(Cl)cc1	-37*	-29*	-8.1*
C[C@H](CO)N1C[C@H](C)[C@H](CN(C)Cc2ccc(C(=O)O)cc2)OCCCC[C@H](C)Oc2ccc(NS(=O)(=O)c3ccc(F)cc3)cc2C1=O	1	2	-0.6
C[C@@H]1CN([C@@H](C)CO)C(=O)c2cc(NS(C)(=O)=O)ccc2O[C@@H](C)CCCCO[C@@H]1CN(C)S(=O)(=O)c1ccccc1	-3	-3	-0.2
O=C(C[C@H]1CC[C@H]2[C@@H](COC[C@H](O)CN2C(=O)C2CCOCC2)O1)NCc1ccncc1	2	-5	7.6
CCC(=O)N1CC[C@@H]2[C@H]1c1cc(-c3ccccc3)ccc1N[C@@H]2CO	3	-1	4.2
CNC(=O)C[C@H]1CC[C@@H]2[C@H](COc3ccc(NC(=O)Nc4ccc(Cl)cc4)cc3C(=O)N2C)O1	4	3	0.8
O=C(C[C@@H]1C=C[C@@H](NS(=O)(=O)c2ccccc2)[C@@H](CO)O1)NCCN1CCCCC1	3	2	1.6
CN(C)C(=O)c1ccc(-c2ccc(C3[C@@H]4CN(S(=O)(=O)Cc5ccccc5)C[C@H]3N4)cc2)cc1 (some centres not stated)	5	-20	24
C[C@H]1CN([C@@H](C)CO)C(=O)c2cc(NS(=O)(=O)c3ccc(F)cc3)ccc2O[C@@H]1CN(C)C(=O)Nc1ccccc1	-7	-5	-1.5
Cc1ccccc1-c1ccc([C@@H]2[C@@H](CO)N3CCCCN(S(C)(=O)=O)C[C@H]23)cc1	3	-10	12
CO[C@@H]1CN(C)C(=O)c2cc(NS(=O)(=O)c3cn(C)cn3)ccc2OC[C@H](C)N(CCC(F)(F)F)C[C@@H]1C	-2	0	-1.2
COc1ccc(NC(=O)N2C[C@@H]3N[C@H](C2)C3c2ccc(-c3cccnc3)cc2)cc1 (some centres not stated)	16&2	14&-1	1.6&2.8
C[C@@H]1CN([C@H](C)CO)C(=O)c2cc(C#CC3CC3)cnc2O[C@@H]1CN(C)C(=O)c1ccc(F)cc1	2	2	-0.6
COc1cccc(-c2ccc([C@@H]3[C@@H](CO)N4C(=O)CN(C(=O)C5CCOCC5)C[C@@H]34)cc2)c1	2	-2	4.2
CC(C)CC#Cc1ccc([C@@H]2[C@@H](CO)N3C(=O)CN(C(=O)Cc4ccccc4)C[C@H]23)cc1	-1	-6	5.0
O=C(c1ccncc1)N1C[C@@H]2[C@H](c3ccccc31)[C@H](CO)N2Cc1ccccc1F	1	3	-1.7
Cn1cnc(S(=O)(=O)N2CC[C@@H]3[C@H]2c2cc(C#Cc4ccc(F)cc4)ccc2N[C@@H]3CO)c1	14	7	7.4
CN1C(=O)c2cc(NC(=O)Cc3ccccc3)ccc2OC[C@H]2O[C@H](CC(=O)O)CC[C@@H]21	-1	-10	8.2
C[C@H]1CN([C@@H](C)CO)C(=O)c2c(c3ccccc3n2C)-c2ccccc2CO[C@H]1CN(C)C(=O)Nc1cccc(C(F)(F)F)c1	u	x	x
C[C@H]1CN([C@@H](C)CO)C(=O)CCCn2nncc2CO[C@@H]1CN(C)C(=O)c1cc(-c2ccccc2)on1	4	1	2.8
Cc1ccccc1S(=O)(=O)N1CC[C@@H]2[C@H]1c1cc(-c3ccccc3)ccc1N(C)[C@H]2CO	14	23	-9.0
C/C=C/c1ccc([C@@H]2[C@@H](CO)N3C(=O)CN(Cc4ccccc4)C[C@@H]23)cc1	20	6	13
COc1ccc2c3c(n(C)c2c1)[C@H](CO)N(CC1CC1)CC31CCN(C(C)=O)CC1	13	2	11
C[C@H]1CCCCO[C@@H](CN(C)C(=O)Cc2ccccc2)[C@@H](C)CN([C@@H](C)CO)C(=O)c2cc(N(C)C)ccc2O1	0	3	-2.7
N#C[C@H]1[C@H](c2ccccc2C2=CCCCC2)[C@H](CO)N1C(=O)c1cccc(F)c1	u	x	x
C[C@H](CO)N1C[C@H](C)[C@H](CN(C)C)Oc2ccc(NC(=O)Nc3ccc4c(c3)OCO4)cc2C1=O	4	-5	9.5
CCNC(=O)C[C@@H]1CC[C@@H]2[C@H](COC[C@H](O)CN2C(=O)C2CCCC2)O1	-1	-6	4.7
COC(=O)[C@@H]1[C@@H](CO)[C@@H]2Cn3c(ccc(C4=CCCCC4)c3=O)[C@@H]2N1CCC(F)(F)F	-1	4	-4.5
C[C@@H]1CN([C@@H](C)CO)C(=O)Cc2cc(NS(C)(=O)=O)ccc2O[C@@H]1CN(C)S(=O)(=O)c1cccs1	0	-1	1.2
C[C@H]1CN([C@@H](C)CO)C(=O)c2c(c3ccccc3n2C)-c2ccccc2CO[C@@H]1CN(C)S(=O)(=O)c1cn(C)cn1	22	10	12
CCCNC(=O)N1CC2(CN(S(=O)(=O)CC)C2)c2c([nH]c3cc(OC)ccc23)[C@@H]1CO	3	7	-3.4
COc1ccc2c3c([nH]c2c1)[C@H](CO)N(C(=O)Nc1ccc(F)cc1)CC31CCN(C(=O)c2ccccc2F)CC1	u	x	x
Cc1ccccc1S(=O)(=O)N1CC[C@@H]2[C@H](CO)Nc3ccc(-c4ccc(C#N)cc4)cc3[C@@H]21	-3	-6	3.1
O=C(C[C@@H]1C[C@H]2c3cc(NC(=O)NC4CCCC4)ccc3O[C@H]2[C@@H](CO)O1)NCc1ccc(-c2ccccc2)cc1	-3	-4	1.9
COc1ccc(-c2ccc3n(c2=O)C[C@H]2[C@H](CO)[C@@H](C(=O)NC4CCC4)N(S(C)(=O)=O)[C@@H]32)cc1	-1	5	-6.5
COc1ccc2c3c(n(C)c2c1)[C@@H](CO)N(Cc1ccccc1F)CC31CN(C(C)=O)C1	1	8	-7.1
COc1cccc(NC(=O)N2CC3(C2)[C@@H](c2ccccc2)[C@@H](CO)N3C(=O)C2CC2)c1	-4	-12	7.3
COC(=O)C[C@@H]1C[C@H]2c3cc(NC(=O)c4cccnc4)ccc3O[C@H]2[C@@H](CO)O1	-2	0	-1.7
Cc1cccc(-c2ccc(C3[C@@H]4CN(Cc5ccccc5F)C[C@H]3N4)cc2)c1 (some centres not stated)	u	x	x
CC(C)[C@H]1CCc2cnnn2COC[C@@H](c2ccccc2)NC1=O	-2	-2	-0.6
C[C@@H]1CCCCO[C@@H](CN(C)S(=O)(=O)c2cn(C)cn2)[C@H](C)CN([C@H](C)CO)C(=O)c2cc(NC(=O)Nc3ccc(C(F)(F)F)cc3)ccc2O1	-2	-1	-1.2
O=C(Nc1ccc(C(F)(F)F)cc1)N[C@@H]1C=C[C@H](CC(=O)N2CCCCC2)O[C@@H]1CO	-1	1	-1.9
O=C(C[C@H]1CC[C@@H]2[C@H](COC[C@@H](O)CN2C(=O)Nc2ccc(F)cc2)O1)NCCCN1CCOCC1	12	4	8.4
C[C@@H]1CN([C@@H](C)CO)C(=O)c2ccccc2-c2ccccc2CO[C@@H]1CN(C)Cc1ccc(C(=O)O)cc1	12	6	6.2
CCCNC(=O)[C@@H]1[C@@H](CO)[C@@H]2Cn3c(ccc(-c4ccccc4F)c3=O)[C@@H]2N1CC1CC1	-4	-2	-2.2
C[C@@H]1CN([C@H](C)CO)C(=O)Cc2cc(NC(=O)C3CCCCC3)ccc2O[C@H]1CN(C)S(=O)(=O)c1ccc(F)cc1	0	-3	2.3
O=C(Nc1ccccc1F)N[C@@H]1CC[C@H](CCNC(=O)C2CC2)O[C@H]1CO	3	2	1.0
COc1ccccc1NC(=O)N1C[C@@H]2[C@H](c3ccccc31)[C@H](CO)N2CC1CCCC1	-1	-4	2.6
COc1cccc(NC(=O)N(C)C[C@@H]2Oc3cc(-c4cccc(C(=O)N(C)C)c4)ccc3S(=O)(=O)N([C@@H](C)CO)C[C@@H]2C)c1	1	-6	7.6
CCS(=O)(=O)N1CC(=O)N2[C@@H](CO)[C@@H](c3ccc(C#CC4CCCCC4)cc3)[C@@H]2C1	5	-2	6.8
C[C@H]1CN([C@@H](C)CO)C(=O)CCCn2cc(nn2)CO[C@H]1CN(C)Cc1ccccc1C(=O)O	5	4	0.8
C[C@H]1CN([C@@H](C)CO)C(=O)CCCn2nncc2CO[C@@H]1CN(C)Cc1ccc(C(=O)O)cc1	0	1	-1.6
O=C(O)C[C@H]1C[C@@H]2c3cc(NC(=O)C4CCC4)ccc3O[C@@H]2[C@H](CO)O1	7	4	3.9
CN1CCN(C(=O)C[C@@H]2CC[C@H]3[C@@H](COC[C@H](O)CN3C(=O)Nc3ccc4c(c3)OCO4)O2)CC1	10	2	8.4
CN1[C@@H]2c3ccc(/C=C/c4ccccc4)c(=O)n3C[C@@H]2[C@@H](CO)[C@@H]1C(=O)NCCCN1CCOCC1	1	-1	2.5

Random excerpt: six records from the list, in no set order.
SMILES	DUX4 inh	DUX4 inh difference	DUX4 inh control
C[C@H]1CN([C@@H](C)CO)C(=O)CCCn2cc(nn2)CO[C@H]1CN(C)Cc1ccccc1C(=O)O	5	4	0.8
CCS(=O)(=O)N1CC(=O)N2[C@@H](CO)[C@@H](c3ccc(C#CC4CCCCC4)cc3)[C@@H]2C1	5	-2	6.8
CN1CCN(C(=O)C[C@@H]2CC[C@H]3[C@@H](COC[C@H](O)CN3C(=O)Nc3ccc4c(c3)OCO4)O2)CC1	10	2	8.4
C[C@@H]1CN([C@H](C)CO)C(=O)Cc2cc(NC(=O)C3CCCCC3)ccc2O[C@H]1CN(C)S(=O)(=O)c1ccc(F)cc1	0	-3	2.3
C[C@@H]1CN([C@@H](C)CO)C(=O)c2ccccc2-c2ccccc2CO[C@@H]1CN(C)Cc1ccc(C(=O)O)cc1	12	6	6.2
O=C(C[C@H]1CC[C@@H]2[C@H](COC[C@@H](O)CN2C(=O)Nc2ccc(F)cc2)O1)NCCCN1CCOCC1	12	4	8.4

3 of the entries above in order of their number in DUX4 inh control, largest number first:
SMILES	DUX4 inh	DUX4 inh difference	DUX4 inh control
COc1cccc(NC(=O)N(C)C[C@@H]2Oc3cc(-c4cccc(C(=O)N(C)C)c4)ccc3S(=O)(=O)N([C@@H](C)CO)C[C@@H]2C)c1	1	-6	7.6
O=C(O)C[C@H]1C[C@@H]2c3cc(NC(=O)C4CCC4)ccc3O[C@@H]2[C@H](CO)O1	7	4	3.9
O=C(Nc1ccc(C(F)(F)F)cc1)N[C@@H]1C=C[C@H](CC(=O)N2CCCCC2)O[C@@H]1CO	-1	1	-1.9

New compounds follow:
SMILES	DUX4 inh	DUX4 inh difference	DUX4 inh control
OC[C@H]1[C@H](c2ccc(-c3cccc(F)c3)cc2)[C@@H]2CN(Cc3cncnc3)CCCCN12	7	-1	8.2
O=C(CC1CC1)N1[C@@H](CO)[C@@H]2c3ccccc3N(S(=O)(=O)c3ccccc3)C[C@@H]21	2	-5	6.8
COCC(=O)Nc1ccc2c(c1)C(=O)N(C)[C@@H]1CC[C@H](CC(=O)NCc3ccc(OC)cc3)O[C@H]1CO2	3	3	0.4
Cc1noc(C)c1NC(=O)N[C@@H]1CC[C@@H](CC(=O)N2CCN(C)CC2)O[C@H]1CO	5	1	3.9
CCCNC(=O)Nc1ccc2c(c1)C(=O)N(C)[C@H]1CC[C@H](CC(=O)Nc3cc(F)ccc3F)O[C@@H]1CO2	-1	-2	1.2
COc1ccc(NC(=O)Nc2ccc3c(c2)C(=O)N([C@@H](C)CO)C[C@@H](C)[C@@H](CN(C)S(=O)(=O)c2cccs2)OCCCC[C@H](C)O3)cc1	-6	-7	1.3
Cc1noc(C)c1S(=O)(=O)Nc1ccc2c(c1)CC(=O)N([C@H](C)CO)C[C@H](C)[C@H](CN(C)C(=O)Nc1cccc3ccccc13)O2	-1	-3	2.1
O=C(C1CCOCC1)N1CC[C@@H]2[C@@H](CO)Nc3ccc(-c4ccc(F)cc4)cc3[C@@H]21	13	14	-0.6
C[C@@H]1CCCCO[C@@H](CN(C)C(=O)CCCN(C)C)[C@@H](C)CN([C@H](C)CO)C(=O)c2cc(NC(=O)c3ccccc3)ccc2O1	2	6	-3.4
CCCC#Cc1ccc([C@H]2[C@@H](CO)N3C(=O)CN(C(=O)Cc4cccnc4)C[C@@H]23)cc1	10	-1	11
CCNC(=O)[C@H]1[C@H](CO)[C@H]2Cn3c(ccc(-c4cccc(F)c4)c3=O)[C@@H]1N2C(=O)c1cnccn1	2	1	1.1
COc1ccccc1-c1cccc(-c2nc(C(=O)NCc3ccncc3)cc3c2[C@@H](CCO)N([S@](=O)C(C)(C)C)C3)c1	0	-3	3.2
O=C(Nc1cccc(F)c1)N1CCCCN2[C@H](C1)[C@H](c1ccc(-c3ccncc3)cc1)[C@@H]2CO	9	10	-1.2
C/C=C/c1ccc2c(c1)O[C@@H](CN(C)Cc1ccccc1F)[C@H](C)CN([C@@H](C)CO)S2(=O)=O	0	5	-4.8
C[C@@H]1CN([C@H](C)CO)C(=O)CCCn2nncc2CO[C@@H]1CN(C)Cc1ccc(O)cc1	5	4	1.1
COc1ccc2c3c(n(C)c2c1)[C@H](CO)N(C(=O)Cc1ccccc1)CC31CCN(C)CC1	6	12	-6.5
